High-throughput results: PubChem BioAssay, Broad Institute
DUX4 txn inh: DUX4-mediated transcription inhibition | activity change, negative = inhibition, % (concentration not given with the values) | AID 1224904 | 293T-iDUX4 ZSCAN4-Gaussia luciferase reporter, 24 h; stronger effect = lower value | hit rate 0.8% among 37,000;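 active = -10% or lower and over 25 points stronger than a control reporter; inconclusive = -10% or lower with a smaller gap; inactive = above -10%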;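 note: 0% = median of neutral control wells and -100% = median of positive control wells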
DUX4 txn inh difference: recorded beside DUX4 txn inh, whose call it bears; Gaussia minus Italica difference, %; measured here: selective DUX4 reporter inhibition;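 worked out from the two reporters; negative = selective loss of the DUX4 reporter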
DUX4 txn inh control: recorded beside DUX4 txn inh, whose call it bears; activity change, negative = inhibition, %; measured here: Italica tet-on control reporter;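 0 = neutral control and -100 = positive control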
* marks the source's active call; other numbers are inactive results; ? = inconclusive; . = no result given; & = joins results of further samples.

DUX4 txn inh control	DUX4 txn inh difference	DUX4 txn inh	SMILES
.	.	?	CCCNC(=O)N1CC2(C1)[C@@H](c1ccccc1)[C@@H](CO)N2CC1CCCC1
1.6	2.4	4.0	CCc1cnc(N2[C@H](C#N)[C@H](c3ccccc3)[C@@H]2CO)s1
-6.1	-1.5	-7.5	CO[C@H]1CN(C)C(=O)c2cc(NC(=O)Nc3ccc(Cl)cc3)ccc2OC[C@H](C)N(C)C[C@H]1C
3.9	-1.8	2.1	CC(=O)N(C[C@@H]1N[C@@H](CO)[C@@H]1c1ccc(-c2ccc(F)cc2)cc1)C(C)C
1.1	-2.9	-1.8	CCC(=O)N1[C@@H]2CN(C(=O)Nc3cccc(Cl)c3)c3ccccc3[C@@H]2[C@@H]1CO
.	.	?	O=C(Nc1ccc2c(c1)[C@H]1C[C@@H](CC(=O)N3CCc4ccccc4C3)O[C@H](CO)[C@H]1O2)Nc1ccccc1F
1.8	-4.1	-2.3	CO[C@@H]1CN(C)C(=O)c2ccc(NC(=O)Nc3ccccc3F)cc2OC[C@H](C)N(C(C)=O)C[C@@H]1C
11.8&-9.2	-2.1&2.5	9.7&-6.8	C/C=C/c1ccc(C2[C@@H]3CN(C(=O)Nc4ccc5c(c4)OCO5)C[C@H]2N3)cc1 (some centres not stated)
-1.7	1.8	0.1	CCC(=O)N1[C@H](CO)[C@@H](c2ccccc2)[C@@H]1CN(CC)C(=O)NC1CCCC1
4.4	-0.1	4.3	COCc1cn(CC[C@@H]2CC[C@H](NC(=O)c3ccc(F)cc3)[C@@H](CO)O2)nn1
-0.7	1.0	0.3	CCCNC(=O)N1CC(=O)N2[C@H](CO)[C@H](c3ccc(C#Cc4ccccc4)cc3)[C@@H]2C1
-2.9	4.8	1.9	COc1cccc(S(=O)(=O)N(C)C[C@H]2OCc3cnnn3CCCC(=O)N([C@@H](C)CO)C[C@H]2C)c1
9.1	13.8	22.9	CCCNC(=O)N1CCC2(CC1)CN(C(=O)CC)[C@@H](CO)c1c2c2ccc(OC)cc2n1C
2.5	-2.2	0.3	O=C(C[C@H]1C[C@H]2c3cc(NC(=O)c4ccc5c(c4)OCO5)ccc3O[C@H]2[C@@H](CO)O1)NCCN1CCCCC1
1.8&3.3	18.1&11.1	19.9&14.3	c1cc(-c2ccc(C3[C@H]4CNC[C@@H]3N4CC3CCCCC3)cc2)ccn1 (some centres not stated)
-2.8	-3.1	-5.9	CC(=O)NC[C@@H]1[C@@H](c2ccc(-c3ccccc3)cc2)[C@H](CO)N1C(=O)C1CCC1
1.5	-0.1	1.4	Cc1ccc(S(=O)(=O)N(C)C[C@H]2Oc3cc(C#CC4CCCC4)ccc3S(=O)(=O)N([C@@H](C)CO)C[C@H]2C)cc1
2.2	-0.9	1.2	N#C[C@H]1[C@@H](c2ccccc2-c2cccc(F)c2)[C@@H](CO)N1C(=O)Cc1cccnc1
6.7	0.7	7.5	Cc1ccc(-c2ccc([C@H]3[C@H](CO)N4C(=O)CN(C(=O)NC(C)C)C[C@@H]34)cc2)cc1
-0.4	2.7	2.3	C[C@H](O)C#Cc1cnc2c(c1)C(=O)N([C@@H](C)CO)C[C@H](C)[C@@H](CN(C)Cc1cncnc1)O2
-1.7	3.8	2.1	CC(=O)Nc1ccc2c(c1)C(=O)N(C)[C@H]1CC[C@H](CC(=O)Nc3c(F)cccc3F)O[C@@H]1CO2
.	.	?	COCC(=O)N1CC2(C1)[C@H](c1ccc(-c3cccc(C)c3)cc1)[C@H](CO)N2C(=O)C1CC1
-0.5	-1.4	-1.8	CNC[C@@H]1Oc2c(NC(=O)c3cnccn3)cccc2C(=O)N([C@@H](C)CO)C[C@@H]1C
-1.6	3.7	2.1	O=C(NCc1cc(F)cc(F)c1)[C@H]1[C@H](CO)[C@H]2Cn3c(cccc3=O)[C@@H]1N2C(=O)c1ccccn1
2.6	-0.9	1.6	Cc1noc(C)c1NC(=O)N(C)C[C@@H]1Oc2ncc(C3=CCCCC3)cc2C(=O)N([C@@H](C)CO)C[C@@H]1C

An excerpt from above in order of molar mass, falling.
DUX4 txn inh control	DUX4 txn inh difference	DUX4 txn inh	SMILES
.	.	?	O=C(Nc1ccc2c(c1)[C@H]1C[C@@H](CC(=O)N3CCc4ccccc4C3)O[C@H](CO)[C@H]1O2)Nc1ccccc1F
-1.6	3.7	2.1	O=C(NCc1cc(F)cc(F)c1)[C@H]1[C@H](CO)[C@H]2Cn3c(cccc3=O)[C@@H]1N2C(=O)c1ccccn1
-0.5	-1.4	-1.8	CNC[C@@H]1Oc2c(NC(=O)c3cnccn3)cccc2C(=O)N([C@@H](C)CO)C[C@@H]1C
1.1	-2.9	-1.8	CCC(=O)N1[C@@H]2CN(C(=O)Nc3cccc(Cl)c3)c3ccccc3[C@@H]2[C@@H]1CO
4.4	-0.1	4.3	COCc1cn(CC[C@@H]2CC[C@H](NC(=O)c3ccc(F)cc3)[C@@H](CO)O2)nn1
1.8&3.3	18.1&11.1	19.9&14.3	c1cc(-c2ccc(C3[C@H]4CNC[C@@H]3N4CC3CCCCC3)cc2)ccn1 (some centres not stated)
1.6	2.4	4.0	CCc1cnc(N2[C@H](C#N)[C@H](c3ccccc3)[C@@H]2CO)s1

(list continues)
DUX4 txn inh control	DUX4 txn inh difference	DUX4 txn inh	SMILES
.	.	?	CC=Cc1ccc2n(c1=O)C[C@H]1[C@H](CO)[C@@H](C(=O)Nc3ccc(-c4ccccc4)cc3)N(CC)[C@@H]21 (mixture of isomers)
5.1	-12.4	-7.3	N#C[C@@H]1[C@H](c2ccccc2C2=CCCC2)[C@@H](CO)N1C(=O)C1CCCC1
4.8	-11.5	-6.7	CC=Cc1ccc2n(c1=O)C[C@@H]1[C@@H](CO)[C@H](C(=O)NCCc3cn(C)cn3)[C@H]2N1C(=O)CC1CC1 (mixture of isomers)
0.7	1.9	2.6	O=C(C[C@H]1CC[C@H]2[C@@H](COC[C@@H](O)CN2C(=O)Nc2ccccc2)O1)NCc1ccccc1F
5.1	-5.7	-0.6	CCNC(=O)C[C@H]1CC[C@H]2[C@@H](COc3ccc(NC(=O)C4CCCCC4)cc3C(=O)N2C)O1
-3.4	-0.6	-4.0	C[C@H](CO)N1C[C@H](C)[C@H](CN(C)C(=O)Nc2ccc(F)cc2)OCc2cnnn2CCCC1=O
10.6	-4.7	5.9	CC(C)NC(=O)N1C[C@H]2[C@@H](c3ccccc31)[C@H](CO)N2Cc1ccccn1
.	.	?	O=C(C[C@@H]1CC[C@@H]2[C@H](COC[C@H](O)CN2Cc2ccccc2F)O1)N[C@H]1CCN(Cc2ccccc2)C1
2.9	-4.5	-1.5	CC(=O)N(C)C[C@H]1[C@H](c2ccc(-c3ccccc3)cc2)[C@@H](CO)N1C(=O)C1CC1
2.1	-11.1	-9.0	O=C(NC1CCCCC1)[C@@H]1[C@@H](CO)[C@@H]2Cn3c(cccc3=O)[C@@H]2N1CC1CCCC1
3.8	-0.9	2.9	Cn1cnc(S(=O)(=O)N2CC[C@@H]3[C@H]2c2cc(C#Cc4ccccc4F)ccc2N[C@@H]3CO)c1
-1.1	-4.0	-5.1	O=C(C[C@@H]1CC[C@@H]2[C@H](COC[C@H](O)CN2S(=O)(=O)c2ccccc2F)O1)NCc1ccccc1Cl
-3.4	0.1	-3.3	COCC(=O)N(C)C[C@@H]1Oc2cc(-c3ccc(OC)cc3)ccc2S(=O)(=O)N([C@@H](C)CO)C[C@H]1C
-1.3	-0.4	-1.7	COC(=O)C[C@@H]1CC[C@@H]2[C@@H](COc3ccc(NC(=O)c4cccc(Cl)c4)cc3C(=O)N2C)O1
-3.9	-3.7	-7.5	C[C@H](CO)N1C[C@H](C)[C@H](CN(C)C(=O)c2ccc(F)cc2)OCc2ccccc2-c2ccccc2C1=O
-2.5	1.6	-1.0	CS(=O)(=O)N1[C@@H]2Cn3c(ccc(C4=CCCC4)c3=O)[C@H]1[C@@H](C(=O)N1CCCCC1)[C@@H]2CO
-0.1	2.2	2.1	C[C@H]1CN([C@@H](C)CO)S(=O)(=O)c2ccc(-c3cncnc3)cc2O[C@@H]1CN(C)C(=O)c1cccc(F)c1
3.2	0.6	3.8	COc1cccc(-c2ccc3c(c2)O[C@H](CN(C)Cc2cccnc2)[C@H](C)CN([C@H](C)CO)S3(=O)=O)c1
-2.3	7.2	4.9	C[C@@H]1CN([C@@H](C)CO)C(=O)CCCn2nncc2CO[C@H]1CN(C)C(=O)c1cc(-c2ccccc2)on1
8.9	2.9	11.8	O=C(C1CC1)N1CC2(C1)[C@H](c1ccccc1)[C@H](CO)N2Cc1nccs1
3.7	-7.3	-3.6	CCC(=O)N1CC(=O)N2[C@H](CO)[C@H](c3ccc(C#CCC(C)C)cc3)[C@@H]2C1
6.0	-0.9	5.1	CCCNC(=O)C[C@@H]1C[C@@H]2c3cc(NC(=O)C4CCOCC4)ccc3O[C@@H]2[C@@H](CO)O1
-1.9	3.3	1.3	Cc1ccccc1-c1cnc2c(c1)C(=O)N([C@@H](C)CO)C[C@H](C)[C@@H](CN(C)C(=O)c1ccncc1)O2
-3.4	18.0	14.6	CN(C)C(=O)c1ccc(-c2ccc3c(c2)[C@H]2[C@H](CCN2C(=O)C2CCCC2)[C@H](CO)N3C)cc1
5.2	0.6	5.7	COc1ccc(C#Cc2ccc3c(c2)[C@@H]2[C@@H](CCN2Cc2nccs2)[C@@H](CO)N3)cc1

An excerpt of these results, with values under each structure:
Each structure is followed by: DUX4 txn inh control, DUX4 txn inh difference, DUX4 txn inh
> CC(=O)N(C)C[C@H]1[C@H](c2ccc(-c3ccccc3)cc2)[C@@H](CO)N1C(=O)C1CC1
    2.9, -4.5, -1.5
> N#C[C@@H]1[C@H](c2ccccc2C2=CCCC2)[C@@H](CO)N1C(=O)C1CCCC1
    5.1, -12.4, -7.3

(listing goes on)
DUX4 txn inh control	DUX4 txn inh difference	DUX4 txn inh	SMILES
.	.	?	COc1ccc2c3c([nH]c2c1)[C@H](CO)N(Cc1ccc(Cl)cc1)CC31CN(Cc2nccs2)C1
11.8	18.3	30.1	COc1ccc2c3c(n(C)c2c1)[C@H](CO)N(C(=O)CN1CCOCC1)CC31CCN(Cc2ccncc2)CC1
-1.9	0.2	-1.6	COc1ccc(C#Cc2ccc([C@H]3[C@H](CO)N4C(=O)CN(C(=O)c5ccncc5)C[C@@H]34)cc2)cc1
3.6	2.2	5.7	CN1C(=O)c2cc(NS(C)(=O)=O)ccc2OC[C@@H]2O[C@@H](CC(=O)NCc3ccccc3)CC[C@H]21
-3.6	1.2	-2.3	COc1ccc2c3c(n(C)c2c1)[C@@H](CO)NCC31CN(S(=O)(=O)c2ccccc2)C1
-0.1	1.9	1.8	CCNC(=O)[C@H]1[C@H](CO)[C@H]2Cn3c(ccc(-c4cccc(F)c4)c3=O)[C@H]2N1C(=O)Cc1cccnc1
4.0	-2.2	1.7	O=C(c1ccc(F)cc1)N1CC(=O)N2[C@H](CO)[C@@H](c3ccc(-c4cccnc4)cc3)[C@H]2C1
-1.0	-2.6	-3.7	COCC(=O)N1C[C@H]2[C@@H](c3ccccc31)[C@H](CO)N2C(=O)C1CCCC1
.	.	?	C/C=C/c1ccc([C@H]2[C@@H](CO)N3CCCCN(S(=O)(=O)c4ccc(OC)cc4)C[C@H]23)cc1
-1.0	0.2	-0.8	Cc1ccccc1-c1cnc2c(c1)C(=O)N([C@@H](C)CO)C[C@@H](C)[C@H](CN(C)CC1CCOCC1)O2
-3.2	4.5	1.4	CCCNC(=O)N1[C@@H]2c3ccc(-c4cccc(F)c4)c(=O)n3C[C@H]1[C@H](CO)[C@H]2C(=O)NC1CCC1
4.6	-3.8	0.8	CN1C(=O)c2cc(NC(=O)Cc3ccccc3)ccc2OC[C@H]2O[C@@H](CC(=O)O)CC[C@@H]21
4.5	-11.5	-7.0	Cc1cccc(S(=O)(=O)N[C@H]2CC[C@H](CCNC(=O)Nc3cc(F)ccc3F)O[C@@H]2CO)c1
2.3	0.7	3.0	CO[C@H]1CN(C)C(=O)c2cc(NC(=O)CC(F)(F)F)ccc2OC[C@H](C)N(C(=O)C2CCCCC2)C[C@H]1C
-0.5	-0.8	-1.3	O=C(Nc1cccc(Cl)c1)N1C[C@H]2[C@@H](c3ccccc31)[C@H](CO)N2CC1CCOCC1
.	.	?	O=C(C[C@@H]1CC[C@H]2[C@@H](COC[C@H](O)CN2Cc2cccc(C(F)(F)F)c2)O1)NCCc1ccccc1
4.9	-1.4	3.4	COCC(=O)N1[C@@H](CO)[C@@H](c2ccccc2)C12CN(C(=O)Cc1ccccn1)C2
0.9	-4.3	-3.4	C[C@H](CO)N1C[C@H](C)[C@@H](CN(C)Cc2ccccc2)Oc2ccc(NC(=O)Nc3ccccc3)cc2C1=O
.	.	?	N#Cc1cccc(-c2ccc3c(c2)[C@@H]2[C@@H](CCN2Cc2ccncc2)[C@@H](CO)N3)c1
-0.8	0.3	-0.6	C[C@@H]1CN([C@@H](C)CO)C(=O)c2cccc(NC(=O)c3ccc(-c4nccs4)cc3)c2O[C@@H]1CN(C)Cc1ccc(Cl)c(Cl)c1
15.6	-11.8	3.8	CN1CCN(C(=O)C[C@@H]2CC[C@@H]3[C@H](COC[C@@H](O)CN3CC3CCOCC3)O2)CC1
0.1	1.6	1.7	CO[C@H](CN(C)S(=O)(=O)c1cccc(Cl)c1)[C@H](C)CN([C@H](C)CO)S(=O)(=O)c1cccc(Cl)c1
-4.8	7.3	2.5	Cc1cccc(S(=O)(=O)N2CCCCN3[C@H](C2)[C@@H](c2ccc(C#C[C@@H](C)O)cc2)[C@@H]3CO)c1

Not all compounds are listed, so the mix of outcomes need not match the whole.
